Screens deposited in PubChem BioAssay by National Center for Advancing Translational Sciences (NCATS).
CtBP-E1A blk = CtBP/E1A binding inhibition; AID 651724; 340,000 tested, 0.49% active; AlphaScreen GST-E1A/His-CtBP binding, 1536-well; hits give low values; control for the full effect not named in the record; activity change, % (test concentration not listed); in the data active means activity change below about -65%; inconclusive means about -30% to -65%; inactive means above about -30%; note: % is set by controls: 0 for no effect and ±100 for the full control effect; compound concentration not given in the record
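AlphaScreen with 125 nM GST-E1A and 125 nM His-CtBP (5X stocks) in Tris pH 8.0, 300 mM NaCl, BSA, Tween 20, TCEP. Compounds preincubated 2 h at 37 deg C, then glutathione donor/nickel acceptor beads added for 1 h at 37 deg C in dark.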
TRPML1 agonist = human mucolipin-1 channel agonism; Q9GZU1; TRPML1-expressing cells, Ca2+ dye fluorescence, FDSS; host cell line not named in the record; reference of the full effect not given here; activation, % (test concentration not listed); 410,000 tested, 0.12% active; AID 624414; in the data active = activation above about 50%; inconclusive = about 30% to 50%; inactive = below about 30%; note: 0% is about no effect; the text of the record puts the active cut at 80%
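Tetracycline-induced TRPML1-DL cells are seeded and incubated overnight before loading with a no-wash Ca2+ dye and quencher. Agonist activity is taken from the 110 s fluorescence read following compound pin-transfer on an FDSS, before EC80 54-4 challenge.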
Six1-Eya2 blk = Six1/Eya2 interaction inhibition; 360,000 tested, 0.56% active; activity change, % (no concentration beside the values); AlphaScreen GST-Six1/His-Eya2 binding, biochemical; hits give low values; control for the full effect not named in the record; AID 651725; in the data active = activity change below about -65%; inconclusive = about -30% to -65%; inactive = above about -30%; note: % is set by controls: 0 for no effect and ±100 for the full control effect; compound concentration not given in the record
Target sequence (O00167 whole entry, looked up): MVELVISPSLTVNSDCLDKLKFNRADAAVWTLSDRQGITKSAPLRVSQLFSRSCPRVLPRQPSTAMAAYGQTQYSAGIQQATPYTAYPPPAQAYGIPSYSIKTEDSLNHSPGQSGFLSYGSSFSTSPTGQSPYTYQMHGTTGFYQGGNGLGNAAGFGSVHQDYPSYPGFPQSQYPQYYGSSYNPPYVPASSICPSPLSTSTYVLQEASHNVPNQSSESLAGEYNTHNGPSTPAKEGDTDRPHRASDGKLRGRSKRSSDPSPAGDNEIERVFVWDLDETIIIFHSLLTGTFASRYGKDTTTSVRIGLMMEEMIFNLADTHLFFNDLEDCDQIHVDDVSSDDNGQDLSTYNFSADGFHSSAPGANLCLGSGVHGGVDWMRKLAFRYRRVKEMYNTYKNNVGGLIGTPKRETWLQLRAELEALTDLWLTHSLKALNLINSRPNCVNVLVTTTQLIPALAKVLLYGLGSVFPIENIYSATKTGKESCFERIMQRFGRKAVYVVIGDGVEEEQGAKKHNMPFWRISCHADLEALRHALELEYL
Target sequence (Q15475 whole entry, looked up): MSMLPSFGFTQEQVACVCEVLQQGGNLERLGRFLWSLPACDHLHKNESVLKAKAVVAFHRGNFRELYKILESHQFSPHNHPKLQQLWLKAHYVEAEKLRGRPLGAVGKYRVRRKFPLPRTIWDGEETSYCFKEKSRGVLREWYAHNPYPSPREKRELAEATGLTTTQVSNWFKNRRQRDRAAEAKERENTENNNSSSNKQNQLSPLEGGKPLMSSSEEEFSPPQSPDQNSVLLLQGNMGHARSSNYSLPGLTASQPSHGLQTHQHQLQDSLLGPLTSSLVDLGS
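Compounds are tested against tagged Six1 and Eya2 proteins bridged by glutathione donor and nickel acceptor beads; after a one-hour incubation at 37 °C without light, AlphaScreen emission is recorded.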
TRPV1 potentiator = human TRPV1 potentiation; Q8NER1; TRPV1-expressing cells, Fluo-8 calcium influx, capsaicin EC20 potentiation; host cell line not named in the record; control for the full effect not named in the record; potentiation, % at 8.33 µM; 320,000 tested, 0.02% active; AID 540277; active means potentiation above 80%; inconclusive means 30% to 80%; inactive means below 30%; note: 0% is about no effect
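Cells expressing TRPV1 were dye-loaded with Fluo-8 and read kinetically: 10 s baseline, 3 min after compound (agonist portion), then 2 min after EC20 capsaicin (allosteric enhancer portion). Calcium-bound dye fluorescence at 480/520 nm.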
D2 potentiator = human D2 receptor positive allosteric modulation. P14416. DiscoveRx D2 beta-arrestin cells, luminescence, 90 min; 100% = 57 uM dopamine signal. potentiation, % (test concentration not listed). 360,000 tested, 0.23% active. AID 624464; active = potentiation of 50% or more; inconclusive = 30% to 50%; inactive = 30% or less;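 note: compound concentration not given in the record; tested on top of an EC20 dose of dopamine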
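D2 cells co-treated with compound plus 50 nM dopamine (EC20) for 90 min at 37 deg C to detect potentiation. Beta-arrestin recruitment was read as enzyme-fragment luminescence after 1 h at ambient temperature. Full response was set by 57 uM dopamine.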
TRPML1 inh = blocks the human TRPML1 channel | TRPML1-inducible cells, Ca2+ dye fluorescence, FDSS; hits give low values; inhibition of EC80 agonist-evoked calcium signal | activity change, negative = inhibition, % (no concentration beside the values) | 390,000 tested, 0.02% active; in the data active means activity change below about -50%; inconclusive means about -30% to -50%; inactive means above about -30%;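 note: stimulus is agonist 54-4 at its EC80 concentration; % is set by controls: 0 for no effect and ±100 for the full control effect; compound concentration not given in the record; the text of the record puts the active cut at -80%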
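Tet-induced TRPML1-DL cells loaded with Ca8 no-wash calcium dye were read kinetically on FDSS. Compound addition was followed by EC80 agonist 54-4 (4 uM final); inhibition was read over 110 s.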
* = called active by the depositor; ? = inconclusive; . = not tested or not shown; & = joins results of further samples. The order is random; any-hit rate near 0.95%.

molecule | CtBP-E1A blk | TRPML1 agonist | Six1-Eya2 blk | TRPV1 potentiator | D2 potentiator | TRPML1 inh
O=C(NCc1cccs1)C(=O)c1cn(CC(=O)N2CCCC2)c2ccccc12 | 6 | -0.6 | 4 | 17 | -15 | 58
Cc1cccc(N2CCN(Cc3nc(CC4CC4)no3)CC2)n1 | 9 | -0.2 | 3 | -8 | -4 | 18
COc1cc2cc(CN(CCCN3CCOCC3)Cc3nnnn3Cc3ccccc3)c(=O)[nH]c2cc1OC | -10 | -0.1 | 4 | -2 | -3 | -6
O=C(O)CCCNS(=O)(=O)c1ccc(NCc2ccccc2)c(C(=O)O)c1 | 17 | -0.1 | 3 | -6 | 1 | 29
O=C(CN1C(=O)c2ccccc2C1=O)N1CCN(C(=O)c2ccco2)CC1 | 0 | 0.3 | 2 | 2 | -6 | -16
Cc1c(C#N)c2ccccc2n1CC(=O)N1CCCC1 | 3 | 2.5 | 0 | 1 | -17 | 2
CCSc1nc(C)c(C)c(=O)[nH]1 | 6 | 1.6 | 1 | 6 | -2 | 1
COc1cc(CNc2ncnc3c2ncn3[C@H]2CN(Cc3cccc(C(F)(F)F)c3)C[C@@H](CO)O2)cc(OC)c1OC | -8 | -0.2 | -9 | . | -2 | .
CC1CN(Cc2cnc(Cl)s2)CC(C)O1 (centres undefined) | -3 | -0.2 | 7 | -9 | -1 | 18
COc1ccccc1CNC(=O)C/C(C)=N/NC(=O)Cc1ccccc1 | 3 | -1.0 | 3 | 0 | -8 | 6
O=C(N/N=C/c1cccnc1)c1ccc(NC(=O)c2ccc(F)cc2)cc1 | 12 | -1.4 | -2 | -17 | -8 | -9
O=C(Nc1ccc(S(=O)(=O)N2CCCCC2c2cccnc2)cc1)c1ccccc1F (centres undefined) | . | -1.3 | -6 | ? | -3 | 0
Cc1ccc(NC2CCCN(C(=O)c3ccccc3N3CCOCC3)C2)cc1C (centres undefined) | -1 | -0.9 | -2 | -36 | -1 | 3
NC(=O)COC(=O)c1ccc(-c2ccc(O)cc2)cc1 | 0 | 1.2 | -6 | -9 | -6 | -16
Cn1ncc(Cl)c1C(=O)N1CCN(C(=O)c2ccco2)CC1 | 11 | 0.9 | 3 | -9 | 1 | 4
COc1cccc(C(NC(C)=O)c2nc(-c3ccccc3)cs2)c1 (centres undefined) | 1 | -0.6 | -5 | . | -1 | .
Cc1sc(NC(=O)C2C3CCC(O3)C2C(=O)O)c(C(=O)OC(C)C)c1-c1ccc(Cl)cc1 (centres undefined) | 0 | 0.5 | 1 | -14 | -2 | 17
Cc1ccc(SCC2=NNC(=O)C2)cc1 | 5 | 0.3 | -2 | 11 | -2 | 2
COc1cccc(C(=O)NCCOc2cc(C)cc(C)c2)c1 | 1 | 1.0 | -5 | -5 | -5 | 33
CC(=O)Oc1ccc(C(=O)Nc2ccccc2NC(=O)c2ccc(OC(C)=O)cc2)cc1 | . | 0.0 | -16 | 10 | -6 | -3

The closing 2 entries of the section before lead into the next.
molecule | CtBP-E1A blk | TRPML1 agonist | Six1-Eya2 blk | TRPV1 potentiator | D2 potentiator | TRPML1 inh
COc1cccc(C(=O)NCCOc2cc(C)cc(C)c2)c1 | 1 | 1.0 | -5 | -5 | -5 | 33
CC(=O)Oc1ccc(C(=O)Nc2ccccc2NC(=O)c2ccc(OC(C)=O)cc2)cc1 | . | 0.0 | -16 | 10 | -6 | -3
CC(C)(C)n1nnnc1C(c1ccc(F)cc1)N1CCN(Cc2ccc3c(c2)OCO3)CC1 (centres undefined) | -2 | 0.9 | -12 | -2 | -40 | 4
O=C(CN1C(=O)NC2(CCCC2)C1=O)OCc1ccccc1F | 9 | 0.6 | 4 | 2 | -5 | -21
CC1CC(C)(C)CC2(C1)NC(=O)N(CC(=O)N1CCN(S(=O)(=O)c3cccs3)CC1)C2=O (centres undefined) | . | -1.5 | -1 | -2 | 12 | -5
Cc1nc2c(C(=O)NCc3ccccc3Cl)c[nH]n2c(=O)c1Cl | 10 | 1.8 | -2 | 9 | -6 | 19
O=C1CC2c3ccccc3C1C1C(=O)N(Cc3ccccc3)C(=O)C21 (centres undefined) | -14 | -0.4 | 0 | 4 | -4 | -3
COc1ccccc1-c1cnn2c(N3CCOCC3)cc(C)nc12 | 9 | -0.4 | 12 | 9 | -1 | -7
O=C(CCCCl)N1CCc2[nH]c3ccccc3c2C1 | -2 | 0.7 | -8 | ? | -26 | -6
Cc1cnn(C(=O)c2ccccc2Br)c1 | 7 | 2.4 | 6 | 7 | -5 | 30
O=C(Cc1c[nH]c2ccccc12)NCc1ccc2c(c1)OCO2 | -1 | -1.0 | 7 | -5 | -13 | 19
Cc1ccc(C(=O)N2CCC(n3nccc3NC(=O)c3ccccc3C)CC2)cn1 | -2 | 0.1 | 0 | 9 | 4 | -4
Cc1ccnc(SCCn2c(N3CC(C)CC(C)C3)nc3c2c(=O)n(C)c(=O)n3C)n1 (centres undefined) | 2 | -0.1 | 6 | 3 | -14 | 5
COC(C[C@H](O)C[C@H](O)[C@H](C)OCc1ccccc1)OC | -5 | -0.2 | 5 | -9 | -4 | -3
COc1cc(CNc2nc3ccccc3n2C)cc(OC)c1OC | -2 | -0.4 | 5 | 22 | -14 | 15
O=C(COc1ccc(C(=S)N2CCOCC2)cc1Cl)Nc1ccccc1Cl | -8 | -0.7 | 1 | 7 | -13 | 40
c1ccc2c(c1)oc1c(NCC3CCCO3)ncnc12 (centres undefined) | 2 | -0.5 | -3 | -4 | 6 | -1
CC(NC(=O)c1cc(S(=O)(=O)N(C)C)ccc1N1CCCC1)C1CC2CCC1C2 (centres undefined) | -1 | 2.6 | 10 | 1 | -2 | 16
CC(OC(=O)c1cccc(S(=O)(=O)N2CCCCC2)c1)C(=O)NC1CCCCC1C (centres undefined) | 5 | 1.1 | -4 | -22 | 9 | 23
S=c1nc(NCc2cccc(Cl)c2)c2ccccc2[nH]1 | 1 | . | -1 | -8 | -2 | .
COc1ccc(/C=C(\C#N)C(=O)N=CN(C)C)cc1 | 4 | -0.2 | 2 | -3 | 2 | 6
C[C@H](CO)N1C[C@H](C)[C@@H](CN(C)S(C)(=O)=O)Oc2ccc(NC(=O)Cn3cnnn3)cc2C1=O | 32 | 0.1 | 22 | . | . | -8
COc1ccccc1C1/C(=C(/O)c2ccc(OC(C)C)cc2)C(=O)C(=O)N1c1cc(C)on1 (centres undefined) | -1 | 2.1 | -1 | -6 | 9 | 26
CCOC(=O)c1sc(N)nc1C(C)C | -10 | -0.7 | 9 | 7 | -3 | -5
CCO[C@@H]1OC(C(=O)N2CCOCC2)=C[C@H](C2CC2)[C@H]1CCCO | 0 | -1.0 | 19 | -11 | 5 | -5
CC(=O)c1ccc(S(=O)(=O)N2CCN(c3nn(C)c(=O)n(C)c3=O)CC2)cc1 | 4 | 0.0 | 2 | -2 | 10 | -13
CCN(CC)CC(O)c1ccc2ccc3ccc(O)cc3c2c1 (centres undefined) | 0 | 1.1 | 2 | . | -22 | -3
COc1ccc(-c2ccc(NC(=O)c3ccc(Br)o3)cc2)nn1 | -5 | 0.0 | -1 | 5 | -7 | 19
CCNC(=S)N1CCN(C(c2ccccc2)c2ccccc2)CC1 | 6 | 0.8 | -5 | -6 | -9 | 10
C[C@@H](NC(=O)c1ncn(C)c1C(=O)N[C@H](C)c1ccccc1)c1ccccc1 | -1 | 0.2 | 0 | -9 | -8 | 11
CCOc1ccccc1-c1nc(SCC(=O)O)n[nH]1 | 10 | -0.4 | 16 | -12 | -4 | -15
CC(=O)N1CCN(c2ccc(NC(=O)C(C)Oc3ccc(Cl)cc3Cl)cc2)CC1 (centres undefined) | -5 | 1.8 | -13 | 28 | 1 | 20
Cn1c(NC(=O)C2CCCO2)cc(=O)n(C)c1=O (centres undefined) | 8 | -0.1 | 2 | 13 | -18 | -10
O=C(O)CC(C(=O)OCCOc1ccccc1)N1CCOCC1 (centres undefined) | -1 | 0.9 | -2 | -16 | -9 | -8
CC(=O)C[C@H]1c2ccccc2S(=O)(=O)N1C1CCCC1 | 1 | -0.5&-0.4 | 5 | . | -4 | 12
O=C(CCNS(=O)(=O)c1cccs1)NCc1ccccc1 | -12 | -0.6 | 0 | 4 | -27 | 9
CCCc1cc(C(=O)Cc2ccc(C(=O)OCC)o2)c(O)cc1O | 5 | -0.9 | 1 | -9 | -1 | -3
Cc1cccc(/C=c2\s/c(=C\C(=O)C(C)(C)C)[nH]c2=O)c1 | -12 | 1.6 | -24 | -15 | -10 | 0
C=CCN(CC=C)Cc1c(C)[nH]c2c(C)c(C)ccc2c1=O | 0 | -0.3 | 1 | 1 | -6 | 1
CSc1cccc(NC(=O)CSc2ccc(Cl)cc2)c1 | 17 | 2.0 | 12 | -4 | -22 | 8
O=C(N/N=C1\CC2CC=CC12)c1ccc(COc2ccccc2)cc1 (centres undefined) | . | 0.1 | 3 | -15 | -14 | 20
Cc1cc(C)c(OCCN2CCCC2)c(Cl)c1 | . | -0.9 | 2 | -10 | -7 | 14

Entries listed so far that contain two or more sulfur atoms (3):
molecule | CtBP-E1A blk | TRPML1 agonist | Six1-Eya2 blk | TRPV1 potentiator | D2 potentiator | TRPML1 inh
CC1CC(C)(C)CC2(C1)NC(=O)N(CC(=O)N1CCN(S(=O)(=O)c3cccs3)CC1)C2=O (centres undefined) | . | -1.5 | -1 | -2 | 12 | -5
O=C(CCNS(=O)(=O)c1cccs1)NCc1ccccc1 | -12 | -0.6 | 0 | 4 | -27 | 9
CSc1cccc(NC(=O)CSc2ccc(Cl)cc2)c1 | 17 | 2.0 | 12 | -4 | -22 | 8

Other results.
molecule | CtBP-E1A blk | TRPML1 agonist | Six1-Eya2 blk | TRPV1 potentiator | D2 potentiator | TRPML1 inh
COC(=O)c1ccccc1NC(=O)c1ccc2c(c1)C(=O)N(Cc1ccco1)C2=O | 8 | -0.8 | -1 | . | -9 | 31
CN(C(=O)COC(=O)CSc1cc(Cl)ccc1Cl)c1c(N)n(Cc2ccccc2)c(=O)[nH]c1=O | -2 | -0.1 | -2 | -5 | 7 | 10
Cc1cc(C)c2c(CC(=O)NC(C)C)coc2c1 | -2 | 0.2 | 2 | -13 | -3 | -25
Cc1ccc(CCNC(=O)CS(=O)Cc2nc(-c3ccccc3Cl)oc2C)cc1 (centres undefined) | . | -0.5&-0.5 | -20 | -10 | -17 | 13&-8
O=C(COC(=O)Cc1ccccc1[N+](=O)[O-])NC1CCCC1 | 1 | -0.1 | 10 | -3 | -1 | -8
N#Cc1ccc(CSc2nnc(NC(=O)c3ccc4ncsc4c3)s2)cc1 | -2 | -0.8 | -5 | -3 | -9 | 7
COc1ccc(NC(=O)CC(C)=O)c(OC)c1 | . | -0.4 | -1 | -9 | -4 | -4
COc1ccc(-c2ccc(=O)n(CC(=O)NCc3ccco3)n2)cc1 | 1 | 0.3 | 0 | 3 | -12 | -10
COc1ccc(NC(=S)N2CCN(C(=O)c3ccccc3)CC2)cc1 | -17 | -0.2 | -1 | -3 | -4 | 0
